RE007 growth inh: less growth of the S. pombe RE007 Vpr strain; S. pombe RE007 Vpr strain, BacTiter-Glo ATP luminescence, 24 h; control for the full effect not named in the record; Potency, µM (titrated, usually from 92.2 µM), for the others: at the top dose activity change, negative = less growth; 360,000 compounds, 0.21% hits; AID 651644; active = well fitted falling curve with a large enough effect; inconclusive = small, poorly fitted or top-dose-only effect; inactive = no such curve, though single readings can be large or run the other way;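 note: nearly all actives have a fitted effect of over 50% in size; the assay follows cell death caused by Vpr and the record does not say whether a fall means rescue or toxicity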
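Fission yeast RE007 carrying one integrated HIV-1 vpr copy, seeded at OD 0.01 in PMG+AL medium with 23 nL pinned compound. Grown 24 h at 30 degrees; viability read by BacTiter-Glo luminescence after 5 min.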
StopGo reporter: FMDV 2A StopGo reporter, luciferase signal | human cells with a luciferase reporter of 2A StopGo recoding; control for the full effect not named in the record | Potency, µM (top dose mostly 57.9 µM), for inactives: at the top dose signal change, negative = less light | 410,000 compounds, 1.2% hits | AID 1159524; active = well fitted falling curve with a large enough effect; inconclusive = small, poorly fitted or top-dose-only effect; inactive = no such curve, though single readings can be large or run the other way; tested in HEK293T cells; note: nearly all actives have a fitted effect of over 45% in size; luciferase light after 4 h
* = called active by the depositor; ? = inconclusive; [ ] = dose if it differs, or a comment. % is set by controls: 0 for no effect and ±100 for the full control effect; potency is the fitted concentration of half-maximal effect.

Preview:
item	canonical_smiles	RE007 growth inh	StopGo reporter
1	CC(C)CN1C(=O)CN(S(C)(=O)=O)CC1(C)C(=O)NC(C)C (stereo not drawn)	2%	-20%
2	CSc1ccc(CN2CCC(C)(Oc3ccccc3)C2)cc1 (stereo not drawn)	-19%	-19%
3	C[C@@H]1CCCCO[C@H](CN(C)Cc2ccc(Cl)c(Cl)c2)[C@H](C)CN([C@@H](C)CO)C(=O)c2cc(NC(=O)Nc3ccc(F)cc3)ccc2O1	1%	?

Results (from the top)
item	canonical_smiles	RE007 growth inh	StopGo reporter
1	CC(C)CN1C(=O)CN(S(C)(=O)=O)CC1(C)C(=O)NC(C)C (stereo not drawn)	2%	-20%
2	CSc1ccc(CN2CCC(C)(Oc3ccccc3)C2)cc1 (stereo not drawn)	-19%	-19%
3	C[C@@H]1CCCCO[C@H](CN(C)Cc2ccc(Cl)c(Cl)c2)[C@H](C)CN([C@@H](C)CO)C(=O)c2cc(NC(=O)Nc3ccc(F)cc3)ccc2O1	1%	?
4	CC1(C(=O)Nc2ccc3c(c2)OCCO3)CN(S(C)(=O)=O)CC(=O)N1CCCN1CCOCC1 (stereo not drawn)	9%	-10%
5	COCCNC(=O)C1(C)Cc2c(-c3cccc(NC(C)=O)c3)ccnc2O1 (stereo not drawn)	12%	0%
6	O=C(COC(=O)c1c(F)cccc1F)Nc1cccc(S(=O)(=O)N2CCCCC2)c1	0%	-13%
7	COc1cc(N)ccc1Nc1c2ccccc2nc2ccccc12	-25%[18.4 µM]	-25%
8	Oc1ccccc1C1=NC(c2ccccc2)NC(c2ccccc2)C1 (stereo not drawn)	-13%	?
9	COc1ccc(-c2nc3ccc(C)cn3c2Cc2ccc(C)cc2)cc1OC	?	-7%
10	Cc1ccc2nc(C3CCCCC3)c(CC(C)(C)C)n2c1	-16%	-10%
11	CC(=O)Nc1cccc(-c2cc(NC(C)=O)c3ncc(-c4cccc(C(F)(F)F)c4)n3c2)c1	26%	-29%
12	Cn1cc(-c2coc3c(C(=O)NCc4cccc(Cl)c4)cccc23)cn1	-2%	?
13	C[C@H](NS(=O)(=O)c1ccc(Cl)cc1)C(=O)OCC(=O)NCCc1ccc(S(N)(=O)=O)cc1	-5%	-4%
14	O=C(NCc1ccccc1)c1ccc(-c2ccc(F)c(F)c2)c2ccoc12	-1%[18.4 µM]	12%
15	CC1(C(=O)NCc2ccccc2)CCC(=O)N1CCc1c[nH]c2ccccc12 (stereo not drawn)	-3%	2%
16	COc1cccc(C(O)c2nc(-c3cc(F)cc(F)c3)cs2)c1 (stereo not drawn)	-5%	-20%
17	CCNC(=O)C1(C)CCN(C(=O)CCc2ccccc2)C1 (stereo not drawn)	16%	-11%
18	COc1ccc2cc(C3CC=C(CO)CN3S(=O)(=O)c3ccccc3[N+](=O)[O-])n(C(=O)OC(C)(C)C)c2c1 (stereo not drawn)	14%	-16%
19	O=c1ccc2cc(O[C@@H]3O[C@H](CO)[C@@H](O)[C@H](O)[C@H]3O)c(O)cc2o1	-1%[18.4 µM]	-24%
20	CC(=O)Nc1cccc(-c2csc(C(C)(NC(C)=O)c3ccccc3)n2)c1 (stereo not drawn)	4%	0%
21	COc1ccccc1CCC(=O)Nc1ccc(S(=O)(=O)Nc2ncccn2)cc1	-6%	-16%
22	O=C(COC(=O)Cc1c[nH]c2ccccc12)Nc1ccc(Cl)cc1	1%	0%
23	COc1ccc(CCC(=O)NCCOc2ccccc2Cl)cc1	1%	73%[activator]
24	COCCn1c(=S)[nH]c2cc(C(=O)NCc3ccccc3)ccc2c1=O	-2%	-18%
25	COc1ccc(C(=O)OCc2cc(=O)oc3c(C)c(C)ccc23)cc1S(=O)(=O)N1CCOCC1	6%	11%
26	CC(Sc1nn(-c2ccccc2)c(=S)s1)C(=O)NCC1CCCO1 (stereo not drawn)	1%	-11%
27	O=C(NCc1ccccc1)[C@@H]1CCCN1C(=O)[C@@H]1CCCN1C(=O)c1ccc(Cl)cc1Cl	-1%	-19%
28	O=C(c1ccco1)N1CCC2CC1c1c(Cl)cccc12 (stereo not drawn)	13%	7%
29	Cc1ccc(NC(=O)c2ccc(F)cc2F)cc1	-7%	31%[activator]
30	COC(=O)c1ccccc1NC(=O)CN1C(=O)c2ccccc2C1=O	24%	7%

Two compounds picked at random from those above:
item	canonical_smiles	RE007 growth inh	StopGo reporter
22	O=C(COC(=O)Cc1c[nH]c2ccccc12)Nc1ccc(Cl)cc1	1%	0%
14	O=C(NCc1ccccc1)c1ccc(-c2ccc(F)c(F)c2)c2ccoc12	-1%[18.4 µM]	12%

(list continues)
item	canonical_smiles	RE007 growth inh	StopGo reporter
31	COc1ccccc1-c1cnc(C(O)c2cccc(C)c2C)[nH]1 (stereo not drawn)	?	-5%
32	COc1ccc(CN2C(=O)CCC2(C)c2nnnn2Cc2ccccc2)cc1OC (stereo not drawn)	8%	-12%
33	O=C(Nc1ccc(Cl)c(C(F)(F)F)c1)[C@@H]1CC=C[C@@H]2CCN(Cc3ccccc3)C(=O)[C@@H]21	2%	-20%
34	COc1ccc(CNC(=O)/C=C/[C@H]2O[C@@H](n3cc(C)c(=O)[nH]c3=O)C[C@@H]2O)cc1	5%	-16%
35	Cc1cc2nc(-c3nnnn3C3CCCCC3)c(=O)[nH]c2cc1C	4%	0%
36	CCc1ccc(N2C=C(C(=O)OC)C(c3cccc4ccccc34)C(C#N)=C2N)cc1 (stereo not drawn)	-6%	47%[activator]
37	CCOC(=O)C1(C)CCCN(C(=O)c2ccc3c(c2)OCO3)C1 (stereo not drawn)	7%	-2%
38	OC(c1ccccc1)c1nc(-c2ccccc2)cs1 (stereo not drawn)	10%[18.4 µM]	39%[activator]
39	C=CCNc1ncnc2c1ncn2[C@H]1CN(C2CCCC2)C[C@@H](CO)O1	17%	-9%
40	NC(c1csc(Nc2cc(Oc3ccccc3)ncn2)n1)C1CCCCC1 (stereo not drawn)	-18%	-25%
41	C[C@H]1COc2cccc(N3CCN(Cc4ccccc4F)CC3)c2S(=O)(=O)N1	-17%	-19%
42	CC(C)(C)OC(=O)N1CCC(CC2CC(c3ccccc3)=NO2)(C(=O)O)CC1 (stereo not drawn)	-5%	17%
43	Cc1ccc(S(=O)(=O)N2C3CC(c4ccccc4)N(S(=O)(=O)c4ccccc4Cl)CC3C(=O)C[C@H]2c2ccccc2)cc1 (stereo partly drawn)	-10%	-19%
44	OCCN1CCN(c2ncnc3c2ncn3[C@H]2CN(Cc3ccco3)C[C@@H](CO)O2)CC1	-11%	-22%
45	CC[C@@H]1C(=O)[C@H](Cc2ccccc2)[C@H]2CCCC(=O)N3CC[C@@H]1[C@@H]23	-6%	-21%
46	CC(=O)NC(C)(c1ccccc1)c1nc(-c2cc(F)cc(F)c2)cs1 (stereo not drawn)	9%	-11%
47	C[C@H](O)[C@@H]1C(=O)N2CCc3ccc(-c4ccccc4)cc3[C@@H]2C[C@@H]1N(C)C(=O)c1ccc(C#N)cc1	20%	-17%
48	CN(C)c1ccc(CC(=O)N2CCCC(c3cc(C(=O)Nc4ccc5c(c4)OCO5)no3)C2)cc1 (stereo not drawn)	4%	?
49	CCCc1nc2ccc(C(=O)OC)cn2c1Cc1cccc(F)c1	?	11%
50	CC(OCC(O)CN1CCN(S(=O)(=O)c2ccc(Cl)cc2)CC1)c1ccc(Cl)cc1 (stereo not drawn)	-11%	?
51	Cc1nccn1CCC(=O)NC1CCCc2c1cnn2-c1ccc(C(C)(C)C)cc1 (stereo not drawn)	-3%	?
52	Cc1cc(Cl)ccc1OCC(=O)N(Cc1ccco1)c1c(N)n(Cc2ccccc2)c(=O)[nH]c1=O	-10%	-26%
53	CC1(C(=O)NS(=O)(=O)C2CC2)CCN(C(=O)C2(c3ccc(Cl)cc3)CCCC2)C1 (stereo not drawn)	1%	-2%
54	CN(C(=O)CCN1C(=O)/C(=C/c2ccc(F)cc2)SC1=S)C1CCS(=O)(=O)C1 (stereo not drawn)	-13%	-20%
55	CCOC(=O)[C@]12CCCC=C1N(Cc1ccccc1)C(=O)[C@H](CC(=O)NCCCOC)C2	10%	-8%
56	CSc1nsc(NN)n1	-17%	41%[activator]
57	COc1cccc(S(=O)(=O)N(C)C[C@@H]2OCc3cn(nn3)CCCC(=O)N([C@H](C)CO)C[C@H]2C)c1	21%	-7%
58	CC(=O)Nc1ccc(C(=O)NCCCSc2ccccc2)cc1	3%	0%
59	COc1ccc(S(=O)(=O)NCC(=O)NCCc2ccc(OC)c(OC)c2)cc1	-2%	-2%
60	CC(=O)Nc1cccc(NS(=O)(=O)c2ccc3c(c2)CCC(=O)N3)c1	6%	2%

Following part:
item	canonical_smiles	RE007 growth inh	StopGo reporter
61	Cc1ccc(N2CCN(C(C(=O)Nc3c(C)cccc3C)c3ccccc3OC(F)(F)F)CC2)cc1 (stereo not drawn)	9%	-17%
62	O=C(OCc1ccccc1)N1CCC2CC1c1cc(-c3ccccc3)ccc12 (stereo not drawn)	-3%	31%[activator]
63	Cc1ccc(S(=O)(=O)C[C@@H]2OC[C@H](C(C)C)N2S(=O)(=O)c2ccc(C)cc2)cc1	-4%	4%
64	COCCNC(=S)N1CCC(C(=O)c2ccc(Cl)cc2)CC1	-8%	-24%
65	CCOC(=O)[C@]12CCC=C1N(CCC1=CCCCC1)C(=O)[C@H](CC(=O)NCCc1ccccc1OC)C2	-15%	-12%
66	CC1CCCN(S(=O)(=O)c2cccc(C(=O)NCCCN3CCCC3=O)c2)C1 (stereo not drawn)	9%	0%
67	CC1(C)O[C@@H]2C[C@H]3[C@@H]4CCC5=CC(=O)CC[C@]5(C)[C@@]4(F)[C@@H](O)C[C@]3(C)[C@]2(C(=O)CCl)O1	-7%[18.4 µM]	-23%
68	CCNC(=O)C1(C)CCCN1Cc1c(F)cccc1F (stereo not drawn)	-9%	-17%
69	COc1ccc(F)cc1-c1cc(C(=O)NCc2ccc(F)cc2)[nH]n1	-7%	-25%
70	Cc1cc(C)cc(Cn2cc(CN3CC(N4CCN(CCN(C)C)CC4)CS3(=O)=O)nn2)c1 (stereo not drawn)	8%	-21%
71	O=C1NC[C@H](Cc2ccccc2)N(CC2CCN(CCc3ccc(-c4ccccc4)cc3)CC2)C1=O	-15%	?
72	CC1=C(C(=O)N(C)C)CC(CC(=O)NCCc2ccccn2)C(=O)N1Cc1ccc(F)cc1 (stereo not drawn)	2%	-8%
73	CO[C@H]1CN(C)C(=O)c2cc(NC(=O)C3CCCC3)ccc2OC[C@@H](C)NC[C@H]1C	7%	-9%
74	O=C1[C@H](Cc2ccccc2)NCCCC[C@H](c2ccc(Cl)cc2)N1Cc1ccccc1	8%	?
75	Cc1ccc(OCC(=O)NNC(=O)c2ccc(F)c(S(=O)(=O)N3CCOCC3)c2)cc1C	-18%	-20%
76	C[C@@H](CO)NC(=O)[C@H]1O[C@@H](n2cnc3c(N)ncnc32)[C@H](O)[C@@H]1O	11%	-13%
77	CCOC(=O)N1CCN(C(c2ccnc3ccccc23)c2nnnn2-c2c(C)cccc2C)CC1 (stereo not drawn)	-10%	-19%
78	CC(=O)Nc1ccc(CN2C(=O)C(Cc3ccccc3)ON=C2c2cccc(F)c2)cc1 (stereo not drawn)	-3%[18.4 µM]	-6%
79	Cc1cccc(-c2oc3ccc(-c4ccc5c(c4)OCO5)cc3c2-c2ccc(OC3CCCCO3)cc2)c1 (stereo not drawn)	3%	-7%
80	Cc1ccc(S(=O)(=O)N2CCCCC2)cc1NCC(=O)Nc1ccc(Br)cc1F	9%	?
81	COc1ccccc1Cc1c(-c2ccc(Cl)cc2)nc2c3ccccc3ccn12	-4%	-7%
82	Cc1ccc(C)c(OCc2cc(C(=O)N3CCN(C4CCCCC4)CC3)no2)c1	-7%	5%
83	O=C(Nc1c(-c2ccccc2)[nH][nH]c1=O)c1ccc2c(c1)OCO2	21%	3%
84	CCCNC(=O)C1(C)CCCN(C(=O)c2ccccc2F)C1 (stereo not drawn)	8%[18.4 µM]	-1%
85	COc1ccc(CN2C(=O)c3ccccc3C2=O)cc1C(=O)N(C)CC(=O)Nc1ccc(C)cc1	-1%	-20%
86	COc1ccc(-c2cc(C(F)(F)F)n3nc(C(N)=O)cc3n2)cc1	-3%	-26%
87	NC1CC2CCCCC2CC1(O)c1ccccc1 (stereo not drawn)	13%	-1%
88	COc1ccc(OC)c(CN2C(=O)CN(S(C)(=O)=O)CC2(C)C(=O)NC(C)C)c1 (stereo not drawn)	-3%	-11%
89	CSc1ncccc1C(=O)NNC(=O)c1csc(N2CCOCC2)n1	-9%	2%
90	COc1ccc(S(=O)(=O)N=N/C=C2\C=CC=CN2O)cc1OC	-3%	15%
91	CCc1nc2c(OCc3c(C)noc3C)cccn2c1N(C=O)Cc1ccc(OC)cc1	-16%	-11%
92	CCOC(=O)C1=CCN(S(=O)(=O)c2ccccc2C)C1c1cccc(Br)c1 (stereo not drawn)	0%	-22%

Part of the list above, reformatted:
[25] COc1ccc(C(=O)OCc2cc(=O)oc3c(C)c(C)ccc23)cc1S(=O)(=O)N1CCOCC1
  RE007 growth inh: 6%
  StopGo reporter: 11%

[26] CC(Sc1nn(-c2ccccc2)c(=S)s1)C(=O)NCC1CCCO1 (stereo not drawn)
  RE007 growth inh: 1%
  StopGo reporter: -11%

[27] O=C(NCc1ccccc1)[C@@H]1CCCN1C(=O)[C@@H]1CCCN1C(=O)c1ccc(Cl)cc1Cl
  RE007 growth inh: -1%
  StopGo reporter: -19%

An excerpt (hit frequency here may not be typical).
